Compound activity deposited in PubChem BioAssay by National Center for Advancing Translational Sciences (NCATS).
miR-21 reporter: qHTS Assay for Modulators of miRNAs and/orActivators of miR-21; HeLa miR-21 FLuc reporter, luciferase, 48 h; Potency, µM (doses to about 38.3 µM), for inactives: at the top dose reporter change, positive = more light; 340,000 tested, under 10 active; AID 2288, 2010; active = well fitted rising curve with a large enough effect; inconclusive = small, poorly fitted or top-dose-only effect; inactive = no such curve, though single readings can be large or run the other way;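 also: % of control where 0% means no effect; miR-21 action dims this reporter so a rising signal means less miR-21 action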
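HeLa cells endogenously expressing miR-21, stably carrying CMV-driven firefly luciferase with a downstream miR-21 binding site, 2000 cells/well. Titrations up to approximately 40 uM, 48 hours; luciferase luminescence read.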
Rango release inh: qHTS Assay for Inhibitors of RanGTP induced Rango (Ran-regulated importin-beta cargo) - Importin beta complex dissociation; Snurportin-1 (Homo sapiens) + GTP-binding nuclear protein Ran (Homo sapiens) + Importin …; Biochemical FRET Rango-importin beta, RanGTP-induced dissociation; Potency, µM (titrated, usually from 46.1 µM), for the others: at the highest dose activity change, negative = inhibition; actives 0.071% (n = 340,000); active means falling FRET ratio curve, often poorly fitted, with flat reads before Ran was added; inconclusive means other falling curves, or compound fluorescence or quenching; inactive means flat or rising ratio curve;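 also: potency is read from the fitted curve at half-maximal effect; % of control where 0% means no effect; nearly all actives have a fitted effect of over 45% in size; -100% = wells without RanGTP and RCC1; the record marks most hits as doubtful in a second field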
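Two FRET readings bracket the reaction: one 5 min after compound meets Rango–importin beta, another 45 min after RanGTP-RCC1 (0.6 uM Ran, 0.2 uM RCC1, 2 mM GTP) is added. Only the second defines inhibition.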
GLA inh pH 4.5: qHTS Assay for Inhibitors of Human alpha-Galactosidase at pH 4.5 | activity change, negative = inhibition, % at 105 µM | 230,000 tested, under 10 active | purified enzyme, 4-MU-alpha-Gal fluorescence, pH 4.5 | AID 1467, 2008 | Alpha-galactosidase A (Homo sapiens), P06280; inconclusive = small, poorly fitted or top-dose-only inhibition, or a rising curve; inactive = flat fitted curve, though single readings scatter; no compound was filed as active;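 also: 0% = full activity with enzyme and -100% = basal without enzyme; dose as in the result columns while the protocol names 77 µM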
Rango complex inh: qHTS Assay for Inhibitors of Rango (Ran-regulated importin-beta cargo) - Importin beta complex formation. Rango CFP/YFP FRET sensor + importin beta, 45 min. AID 540263, 2011. actives 0.031% (n = 340,000). Potency, µM (series often up to 92.2 µM), for the others: at the top dose inhibition of complex formation. Importin subunit beta-1 (Homo sapiens), Q14974; active = rising FRET ratio curve, often small or poorly fitted; inconclusive = mostly compound fluorescence or quenching in the first reads; inactive = flat curves in all reads;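 also: potency is read from the fitted curve at half-maximal effect; 0% = DMSO wells and 100% = buffer wells lacking importin beta; nearly all actives have a fitted effect of over 15% in size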
Target sequence (Q14974 whole entry, looked up): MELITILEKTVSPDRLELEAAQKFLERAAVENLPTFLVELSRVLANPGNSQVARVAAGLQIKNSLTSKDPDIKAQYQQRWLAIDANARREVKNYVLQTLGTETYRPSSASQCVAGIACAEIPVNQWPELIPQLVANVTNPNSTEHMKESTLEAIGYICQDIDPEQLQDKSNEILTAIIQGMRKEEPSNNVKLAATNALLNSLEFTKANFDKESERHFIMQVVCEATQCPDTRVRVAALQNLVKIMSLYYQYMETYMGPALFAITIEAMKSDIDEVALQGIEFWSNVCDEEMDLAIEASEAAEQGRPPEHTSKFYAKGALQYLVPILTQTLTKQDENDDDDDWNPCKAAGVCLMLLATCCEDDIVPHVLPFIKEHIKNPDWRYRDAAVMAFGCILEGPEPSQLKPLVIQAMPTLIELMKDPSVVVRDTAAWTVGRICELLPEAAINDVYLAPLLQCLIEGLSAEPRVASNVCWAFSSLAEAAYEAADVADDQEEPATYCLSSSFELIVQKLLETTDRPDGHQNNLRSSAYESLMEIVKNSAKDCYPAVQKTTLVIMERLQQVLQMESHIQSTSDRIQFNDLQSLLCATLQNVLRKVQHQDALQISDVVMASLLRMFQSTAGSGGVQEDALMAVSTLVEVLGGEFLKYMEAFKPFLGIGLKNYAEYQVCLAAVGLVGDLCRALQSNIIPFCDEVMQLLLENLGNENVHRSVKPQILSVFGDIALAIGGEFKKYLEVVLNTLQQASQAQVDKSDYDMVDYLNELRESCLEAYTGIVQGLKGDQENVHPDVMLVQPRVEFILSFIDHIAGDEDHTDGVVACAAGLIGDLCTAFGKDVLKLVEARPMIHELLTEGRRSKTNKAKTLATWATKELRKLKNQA
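Inhibition scored from the CFP 486 nm/YFP 530 nm FRET ratio 45 min after adding 0.125 microM importin beta to 50 nM Rango biosensor preincubated 5 min with compound (room temperature, PBS with DTT, Tween-20, BSA). No-importin wells as positive control.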
An asterisk follows results filed as active; ? = inconclusive; . = no result given; [ ] = remark or other dose. These rows are one share of the data; count on the stated rates, not on these rows.

SMILES	miR-21 reporter	Rango release inh	GLA inh pH 4.5	Rango complex inh
COc1ccc(Nc2c3c(nc4c(-c5ccccc5)c(C)nn24)CCC3)cc1	7%	4%	-2	2.4%
CCC(C)(C)n1nnnc1CN1CCN(c2nc3cc(OC)ccc3cc2C#N)CC1	-4%	6%	-1	0.8%
COC(=O)C1C(c2ccc(OC)cc2)C(C(=O)OC)S(=O)(=O)C(CCN2CCCCC2)S1(=O)=O (stereo unspecified)	2%	-7%	2	-2.6%
CC1CCCCN1C(=O)NC12CC3CC(CC(C3)C1)C2 (stereo unspecified)	-3%	-1%	-4	-3.0%
COc1ccccc1C1=CC(=O)C[C@H](c2ccc3c(c2)OCO3)C1	.	1%	.	-0.5%
Cc1ccccc1NC(=O)c1ccc(S(=O)(=O)C(F)F)cc1	-33%	25%	6	4.0%
Cc1ccc(C(=O)NN2C(=O)/C(=C/c3cn(C)c4ccccc34)SC2=S)cc1	5%	?	-6	?
CCCC(=O)Nc1cccc(NC(=O)c2ccc3c(c2)OCCO3)c1	-21%	-3%	-4	-6.3%
COc1cc(/C=C2/C(=N)N3N=C(C)SC3=NC2=O)ccc1OS(=O)(=O)c1ccc(C)cc1	-6%	0%	.	?
CCC(=O)Nc1cccc(NC(=S)NC(=O)c2cccs2)c1	-50%	0%	-3	2.2%
CCOC(=O)c1sc2ccccc2c1OC(=O)c1ccccc1	9%	-3%	-2	2.1%
CCC(C)[C@H](NC(=O)NCCCN1CCOCC1)C(=O)OC (stereo partly specified)	-1%	-6%	-4	?
COc1cc2c(cc1OC)CN(C(=O)c1sc(-c3cnccn3)nc1C)CC2	-7%	0%	-25	0.3%
Cc1cc(C(=O)CN2C(=O)c3ccccc3S2(=O)=O)c(C)n1CC1CCCO1 (stereo unspecified)	?	-18%	6	-1.0%
CC(=O)Nc1ccc(S(=O)(=O)/N=C2\C(=O)c3ccccc3C([O-])=C2n2cc[n+](-c3ccccn3)c2)cc1	-3%	?	-11	?
CC1=C(C(=O)OCc2ccccc2)C(c2ccccc2Cl)NC(=O)N1C (stereo unspecified)	16%	5%	.	1.4%
CCCCNC(=O)CNC(=O)c1nn(-c2ccc(OC)cc2)c(=O)c2ccccc12	7%	1%	.	0.6%
CCN(CC)c1ccc(C=NCCc2ccc(S(N)(=O)=O)cc2)cc1	3%	-12%	-7	?
CN(Cc1cccc2cnccc12)C(=O)c1cc(COc2ccc(F)cc2Cl)on1	1%	-1%	.	0.1%
CC(C)(C)c1nc2c(C#N)c(-c3ccc(Cl)cc3)ccn2n1	-21%	1%	4	-3.2%
CCOC(=O)C1=CC[C@@H](c2cc(OC)c(OC)c(OC)c2)N(S(=O)(=O)c2ccc(C)cc2)[C@H]1C(=O)OCC	.	0%	.	-5.3%
CCCN1C(=O)SC(CC(=O)Nc2ccccc2C)C1=O (stereo unspecified)	-8%	-7%	5	-0.6%
O=C(CSCc1ccccc1Cl)N/N=C/c1ccco1	-23%	-14%	-8	-0.3%
CCOC(=O)c1c(NC(=O)CSC2=NN3CCCC(=O)N=C3S2)sc2c1CCCCC2	-1%	-9%	-16	-1.1%
O=C(CN1C(=O)c2cccc([N+](=O)[O-])c2C1=O)NCc1ccccc1	-3%	16%	.	6.0%
O=C(CC1CCCCC1)NCc1ccco1	4%	-9%	-3	14%
Cc1ccc(NC(=O)CN(C)C(=O)Cn2ccsc2=N)cc1	0%	-24%	-13	-2.6%
O=C(O)Cc1ccc(Oc2ncc(C(F)(F)F)cc2Cl)cc1	-4%	-2%	-11	1.8%
NS(=O)(=O)c1ccc(NC(NC(=O)c2cccnc2)C(Cl)(Cl)Cl)cc1 (stereo unspecified)	7%	13%	.	1.0%
COC(=O)C1=C(C)NC(=O)NC1c1ccc2c(c1)OCO2 (stereo unspecified)	-2%	15%	.	-2.7%
COc1ccc(-n2cc(CNC(C)c3ccncn3)c(-c3cccc(F)c3)n2)cc1 (stereo unspecified)	0%	2%	3	-0.1%
CC(c1n[nH]c(=S)n1-c1ccc(F)cc1)N1CCCCC1 (stereo unspecified)	-1%	13%	2	-1.7%
O=C(COC(=O)c1cc(=O)[nH]c2ccccc12)NCc1cccc(Cl)c1	.	1%	.	-0.6%
C=CCN1N=C(/C=C/c2ccc(OC)cc2)CCC1=O	-65%	26%	.	-0.5%
O=S1(=O)N[C@H](c2ccccc2)C[C@H](c2ccc(C(F)(F)F)cc2)O1	-3%	1%	.	-4.1%
CC(C)NC(=O)CSCc1c(Cl)cccc1Cl	-30%	-9%	-1	-1.4%
CC/C=C/C(=O)N1CC2(CC(c3cccc(NC(=O)c4ccccc4)c3)=NO2)C[C@@H]1C(N)=O (stereo partly specified)	-5%	-3%	0	1.1%
CCOc1cc(/C=C2\CN(CC)C/C(=C\c3ccc(O)c(OCC)c3)C2=O)ccc1O	?	-22%	.	?
CCc1ccc(OCc2cnc(Cl)s2)cc1	-28%	22%	-1	-3.5%
O=C(O)C1=C[C@H](c2cccs2)C[C@H](OCCCCO)O1	-4%	0%	-2	-2.9%
O=C(NNc1nc2ccccc2s1)c1ccccc1F	-21%	-20%	6	-1.8%
O=C(N/N=C/c1ccccc1O)/C(=C/c1ccccc1)CCO	-3%	-18%	0	1.2%
CCOC(=O)[C@H]1[C@H]2COc3ccc(C)cc3[C@@H]2N2C(=O)c3cc(C)ccc3NC(=O)[C@@]12C	.	21%	.	0.7%
Cc1cccc2cc(CN(CCCO)C(=O)Nc3cccc(Cl)c3)c(=O)[nH]c12	7%	?	6	4.1%
O=C(CN1C(=O)c2ccccc2S1(=O)=O)N1CCc2ccccc21	?	2%	4	0.3%
COc1nc(SC)nc(Cl)c1Cc1ccc(OC(C)C)cc1	-3%	-4%	-4	0.5%
Cc1ccc2nsnc2c1NC(=O)c1cccc([N+](=O)[O-])c1	-8%	.	2	.
Cc1cc(Cl)c(S(=O)(=O)NCc2ccccc2)cc1OCC(N)=O	-1%	5%	-13	0.1%
CCOc1ccc(OCC(=O)NCc2n[nH]c(=O)c3ccccc23)cc1	.	-10%	.	0.5%
O=C(CN1c2cccc3cccc(c23)S1(=O)=O)Nc1ccccc1F	-10%	-16%	.	-3.8%
The list continues.
SMILES	miR-21 reporter	Rango release inh	GLA inh pH 4.5	Rango complex inh
CCCN(C(=O)C1CCN(S(=O)(=O)c2ccc(OC)c(OC)c2)CC1)C1CCS(=O)(=O)C1 (stereo unspecified)	.	9%	.	-5.0%
CN=c1sc(C(=O)Nc2ccccc2)c(C)n1C	-4%	34%	1[21.1 µM]	-3.1%
CN(CCOc1ccccc1)CC(=O)Nc1ccc(Br)cc1F	1%	-6%	.	-0.3%
Cc1ccc(NC(=O)CSC2=NN3CCCC(=O)N=C3S2)cc1Cl	8%	-8%	.	0.5%
COc1ccc(S(=O)(=O)N2CCCCCC2)cc1C(=O)N(C)CC(=O)Nc1ccc(F)cc1	.	24%	.	3.5%
CCOc1ccc(N2CC(NC(=O)c3ccc4ccccc4c3)CC2=O)cc1 (stereo unspecified)	.	1%	.	1.2%
C/C(=N/NC(=O)CNC(=O)c1cccs1)c1ccc(Cl)cc1	-6%	34%	.	4.4%
CCCCCCCC(=O)N1CCN(c2cc3c(cc2F)c(=O)c(C(=O)O)cn3CC)CC1	0%	10%	.	-0.7%
COc1ccc(C(=O)C(C)[n+]2ccc(C)c3ccccc32)cc1[N+](=O)[O-] (stereo unspecified)	12%	?	.	?
O=C(CN(Cc1ccc(Br)cc1)S(=O)(=O)c1ccccc1)NCC1CCCO1 (stereo unspecified)	-2%	-1%	.	1.7%
Nc1ccccc1C(=O)N1CCCC1	-3%	-9%	-3	-4.0%
O=C(N/N=C/c1ccc(Br)s1)c1ccccc1[N+](=O)[O-]	-12%	0%	-2	7.9%
Cc1ccc(/C=N/NC(=O)c2ccncc2)cc1	-1%	2%	.	0.0%
COc1cccc(-c2nnn(CC(=O)N3CCCCC3)n2)c1	-43%	-14%	.	0.3%
CC(=O)Nc1ccc(S(=O)(=O)N2CCN(CC(O)COc3ccc4ccccc4c3)CC2)cc1 (stereo unspecified)	?	17%	1	-0.6%
Cc1ccc2nc(/N=C(\N)NC(=O)N3c4ccccc4Sc4ccccc43)nc(C)c2c1	-11%	-4%	0	0.3%
CC(C)(C)OC(=O)N[C@@H](/C=C/c1ccccc1)C(=O)OC(C)(C)C	.	14%	.	0.7%
CS(=O)(=O)N(Cc1ccccc1)c1ccccn1	-2%	2%	-15	-1.2%
CCCn1c(=O)c2c(nc3n2CCN3Cc2ccco2)n(C)c1=O	9%	9%	-7	4.8%
COc1cc(NC(=O)CCc2nnc3ccc(N4CCN(c5cccc(OC)c5)CC4)nn23)cc(OC)c1	1%	-8%	.	-0.7%

22 of the compounds above, as a markdown table.
| SMILES | miR-21 reporter | Rango release inh | GLA inh pH 4.5 | Rango complex inh |
| --- | --- | --- | --- | --- |
| CCOc1ccc(OCC(=O)NCc2n[nH]c(=O)c3ccccc23)cc1 | . | -10% | . | 0.5% |
| O=C(CN1c2cccc3cccc(c23)S1(=O)=O)Nc1ccccc1F | -10% | -16% | . | -3.8% |
| CCCN(C(=O)C1CCN(S(=O)(=O)c2ccc(OC)c(OC)c2)CC1)C1CCS(=O)(=O)C1 (stereo unspecified) | . | 9% | . | -5.0% |
| CN=c1sc(C(=O)Nc2ccccc2)c(C)n1C | -4% | 34% | 1[21.1 µM] | -3.1% |
| CN(CCOc1ccccc1)CC(=O)Nc1ccc(Br)cc1F | 1% | -6% | . | -0.3% |
| Cc1ccc(NC(=O)CSC2=NN3CCCC(=O)N=C3S2)cc1Cl | 8% | -8% | . | 0.5% |
| COc1ccc(S(=O)(=O)N2CCCCCC2)cc1C(=O)N(C)CC(=O)Nc1ccc(F)cc1 | . | 24% | . | 3.5% |
| CCOc1ccc(N2CC(NC(=O)c3ccc4ccccc4c3)CC2=O)cc1 (stereo unspecified) | . | 1% | . | 1.2% |
| C/C(=N/NC(=O)CNC(=O)c1cccs1)c1ccc(Cl)cc1 | -6% | 34% | . | 4.4% |
| CCCCCCCC(=O)N1CCN(c2cc3c(cc2F)c(=O)c(C(=O)O)cn3CC)CC1 | 0% | 10% | . | -0.7% |
| COc1ccc(C(=O)C(C)[n+]2ccc(C)c3ccccc32)cc1[N+](=O)[O-] (stereo unspecified) | 12% | ? | . | ? |
| O=C(CN(Cc1ccc(Br)cc1)S(=O)(=O)c1ccccc1)NCC1CCCO1 (stereo unspecified) | -2% | -1% | . | 1.7% |
| Nc1ccccc1C(=O)N1CCCC1 | -3% | -9% | -3 | -4.0% |
| O=C(N/N=C/c1ccc(Br)s1)c1ccccc1[N+](=O)[O-] | -12% | 0% | -2 | 7.9% |
| Cc1ccc(/C=N/NC(=O)c2ccncc2)cc1 | -1% | 2% | . | 0.0% |
| COc1cccc(-c2nnn(CC(=O)N3CCCCC3)n2)c1 | -43% | -14% | . | 0.3% |
| CC(=O)Nc1ccc(S(=O)(=O)N2CCN(CC(O)COc3ccc4ccccc4c3)CC2)cc1 (stereo unspecified) | ? | 17% | 1 | -0.6% |
| Cc1ccc2nc(/N=C(\N)NC(=O)N3c4ccccc4Sc4ccccc43)nc(C)c2c1 | -11% | -4% | 0 | 0.3% |
| CC(C)(C)OC(=O)N[C@@H](/C=C/c1ccccc1)C(=O)OC(C)(C)C | . | 14% | . | 0.7% |
| CS(=O)(=O)N(Cc1ccccc1)c1ccccn1 | -2% | 2% | -15 | -1.2% |
| CCCn1c(=O)c2c(nc3n2CCN3Cc2ccco2)n(C)c1=O | 9% | 9% | -7 | 4.8% |
| COc1cc(NC(=O)CCc2nnc3ccc(N4CCN(c5cccc(OC)c5)CC4)nn23)cc(OC)c1 | 1% | -8% | . | -0.7% |
